Screening data as filed in PubChem.
miR-21 FLuc: raises the signal of a miR-21 reporter. Potency, µM (highest dose often 38.3 µM), inactives show at the top dose reporter change, positive = more light. HeLa miR-21 FLuc reporter, luciferase, 48 h. 340,000 tested, under 10 active. AID 2288; active = well fitted rising curve with a large enough effect; inconclusive = small, poorly fitted or top-dose-only effect; inactive = no such curve, though single readings can be large or run the other way;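 also: % of control where 0% means no effect; miR-21 action dims this reporter so a rising signal means less miR-21 action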
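Luminescence from a firefly luciferase reporter carrying a miR-21 binding site downstream, stably expressed under a CMV promoter in HeLa cells that make miR-21 endogenously, reports miRNA modulation after 48 h compound exposure up to approximately 40uM final.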
Rango complex inh: Rango-importin beta binding inhibition. Q14974. Rango CFP/YFP FRET sensor + importin beta, 45 min. Potency, µM (highest dose often 92.2 µM), without a hit: top-dose inhibition of complex formation. 340,000 tested, 0.031% active; active = rising FRET ratio curve, often small or poorly fitted; inconclusive = mostly compound fluorescence or quenching in the first reads; inactive = flat curves in all reads;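 also: potency is read from the fitted curve at half-maximal effect; 0% = DMSO wells and 100% = buffer wells lacking importin beta; nearly all actives have a fitted effect of over 15% in size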
Target sequence (Q14974 whole entry, looked up): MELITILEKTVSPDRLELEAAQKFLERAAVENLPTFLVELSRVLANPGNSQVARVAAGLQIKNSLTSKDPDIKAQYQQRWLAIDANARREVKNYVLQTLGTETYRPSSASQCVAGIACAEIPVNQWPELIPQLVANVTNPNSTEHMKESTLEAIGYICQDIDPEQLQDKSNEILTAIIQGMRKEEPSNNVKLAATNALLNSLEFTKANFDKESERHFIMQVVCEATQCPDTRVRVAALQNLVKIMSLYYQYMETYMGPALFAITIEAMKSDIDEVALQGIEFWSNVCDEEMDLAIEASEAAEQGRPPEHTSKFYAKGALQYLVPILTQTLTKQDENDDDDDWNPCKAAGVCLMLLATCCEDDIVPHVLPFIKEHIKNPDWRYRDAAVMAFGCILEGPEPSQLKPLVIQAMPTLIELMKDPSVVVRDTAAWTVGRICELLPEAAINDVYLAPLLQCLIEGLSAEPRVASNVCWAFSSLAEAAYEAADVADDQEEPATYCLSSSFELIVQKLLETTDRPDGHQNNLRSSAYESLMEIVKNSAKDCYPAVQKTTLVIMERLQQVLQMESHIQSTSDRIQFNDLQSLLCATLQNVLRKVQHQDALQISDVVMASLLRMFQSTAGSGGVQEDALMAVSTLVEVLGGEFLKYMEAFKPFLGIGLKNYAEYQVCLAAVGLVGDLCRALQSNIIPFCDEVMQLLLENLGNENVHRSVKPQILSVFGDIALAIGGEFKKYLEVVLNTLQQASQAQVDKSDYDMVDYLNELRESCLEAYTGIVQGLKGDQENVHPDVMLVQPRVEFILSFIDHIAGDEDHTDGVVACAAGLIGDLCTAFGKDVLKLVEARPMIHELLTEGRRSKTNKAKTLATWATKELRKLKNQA
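FRET biosensor (snurportin 1 IBB flanked by EYFP and cerulean), 50 nM, with compound 5 min, then 0.125 microM importin beta in PBS, 1 mM DTT, 0.02% Tween-20, 0.1% BSA. CFP/YFP ratio read after 45 min at room temperature; pre-read flags interference.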
Rango dissoc inh: inhibitors of RanGTP-induced Rango-importin beta complex dissociation; Potency, µM (highest dose often 46.1 µM), for the others: at the highest dose activity change, negative = inhibition; Biochemical FRET Rango-importin beta, RanGTP-induced dissociation; 340,000 tested, 0.071% active; active means falling FRET ratio curve, often poorly fitted, with flat reads before Ran was added; inconclusive means other falling curves, or compound fluorescence or quenching; inactive means flat or rising ratio curve;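 also: potency is read from the fitted curve at half-maximal effect; % of control where 0% means no effect; nearly all actives have a fitted effect of over 45% in size; -100% = wells without RanGTP and RCC1; the record marks most hits as doubtful in a second field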
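Recombinant Rango FRET biosensor (EYFP–snurportin 1 IBB–cerulean CFP10) at 0.1 uM premixed with 0.25 uM importin beta in PBS, 1 mM DTT, 0.02% Tween-20, 0.1% BSA. Compound added 5 min; RanGTP-RCC1 (0.6 uM Ran, 2 mM GTP, 0.2 uM RCC1) then triggers release, read at 45 min.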
GLA inh pH 4.5: alpha-galactosidase A (human) inhibition, pH 4.5 | 230,000 tested, under 10 active | purified enzyme, 4-MU-alpha-Gal fluorescence, pH 4.5 | P06280 | activity change, negative = inhibition, % at 105 µM; inconclusive = small, poorly fitted or top-dose-only inhibition, or a rising curve; inactive = flat fitted curve, though single readings scatter; no compound was filed as active;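 also: 0% = full activity with enzyme and -100% = basal without enzyme; dose as in the result columns while the protocol names 77 µM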
* marks the source's active call; other numbers are inactive results; ? = inconclusive; · = not tested or not shown. This is a subset; the hit share may differ from the screen's.

structure,miR-21 FLuc,Rango complex inh,Rango dissoc inh,GLA inh pH 4.5
COc1cc(/C=C(/C#N)C(=O)Nc2ccccc2)ccc1OCc1ccc(C(=O)O)cc1,-18.4%,0.3%,2.4%,1.6
CCN(CC)S(=O)(=O)c1ccc(OC)c(NC(=O)CSCc2c(C)noc2C)c1,·,3.9%,-13.5%,·
O=C(NCc1ccncc1)c1ccc(Oc2ccccc2)cc1,9.0%,-0.5%,-7.4%,4.1
CCOC(=O)c1ccc(-n2nc(C)cc2C)cc1,-28.2%,4.4%,2.5%,-6.6
CCn1c(Cc2cccs2)nnc1SCC(=O)NC(C)(C)C,-2.5%,?,1.2%,13.9
CCOC(=O)N1CCN(S(=O)(=O)c2ccc(C(=O)N(CCN(C)C)c3nc4c(C)cccc4s3)cc2)CC1,-5.4%,-0.7%,-3.0%,·
O=C(COC(=O)C1(c2ccccc2)CC1)N1CCN(c2ccc(F)cc2)CC1,10.3%,2.4%,-7.4%,-3.7
CN(C(=O)COC(=O)c1ccc(S(=O)(=O)N2CCOCC2)cc1)c1ccccc1,·,?,0.9%,·
O=C(O)CC(NC(=O)Cc1ccccc1)c1ccccc1 (stereo unspecified),2.4%,0.2%,-4.4%,·
O=C(CSc1nc2ccccc2c(=O)[nH]1)Nc1cccc([N+](=O)[O-])c1,0.7%,-0.8%,-2.0%,·
O=C(O)CSCC(=O)N1N=C2/C(=C/c3ccccc3)CCCC2C1c1ccccc1 (stereo unspecified),0.3%,?,1.3%,·
CCN(CC)CCNC(=O)c1ccc(NC(=O)c2ccc(Cl)c(S(=O)(=O)Nc3ccccc3OC)c2)cc1,2.0%,·,·,-7.3
Cn1c(=O)c2[nH]c(Cc3cccc(O)c3)nc2n(C)c1=O,·,?,?,·
O=C(NCc1cccs1)C1CCN(c2nc3ccccc3o2)CC1,-1.9%,-3.2%,2.1%,-6.2
COc1cccc(C(=O)NC(=S)Nc2ccc([N+](=O)[O-])cc2C)c1,-10.7%,2.8%,0.3%,-0.8

(listing goes on)
structure,miR-21 FLuc,Rango complex inh,Rango dissoc inh,GLA inh pH 4.5
CCOC(=O)C1=C(COC(=O)CCS(=O)(=O)c2ccc(C)cc2)NC(=O)NC1C (stereo unspecified),·,1.8%,9.6%,·
CC(C)c1nc2cc(C(=O)N3CCNC(=O)C3c3ccc(F)cc3)ccc2o1 (stereo unspecified),12.8%,1.0%,-3.3%,·
C#Cc1cccc(NC(=O)C2CCN(C(C)=O)CC2)c1,0.4%,0.4%,-0.4%,3.1
O=C(OCC(=O)N1CCOCC1)c1ccccc1OCc1ccc(Cl)cc1,·,10.1%,-9.7%,·
CC(OC(=O)Cc1coc2ccc3ccccc3c12)C(=O)Nc1ncc(Cl)cc1Cl (stereo unspecified),0.1%,-0.7%,-1.2%,-1.8
COC1CCN(C(=O)c2ccc3oc(Cc4ccc(Cl)cc4)nc3c2)CC1,-3.1%,-2.9%,1.5%,·
CC(NC(=O)COc1ccc(S(=O)(=O)N2CCOCC2)cc1)c1ccccc1 (stereo unspecified),·,-3.0%,-1.3%,·
CCOC(=O)N1CCN(c2c(NCCc3ccc(C)cc3)c(=O)c2=O)CC1,-1.3%,2.5%,7.4%,2.7
CN(Cc1nc(-c2cnccn2)no1)Cc1n[nH]c2c1CCCC2,-1.1%,5.4%,3.5%,-8.3
Cc1cccc(OCCC(=O)Nc2ccc(C)c(S(=O)(=O)N3CCOCC3)c2)c1,·,3.7%,3.9%,·
CC(=O)c1cccc2c(O)c(C3=Nc4ccccc4C3=O)[nH]c12,-45.9%,?,?,·
O=C(O)C1CCCCC1C(=O)Nc1cnn(Cc2ccccc2)c1 (stereo unspecified),-7.2%,8.6%,11.0%,5.5
CCCN(CCC)c1c([N+](=O)[O-])c(=O)oc2ccccc12,-1.1%,1.9%,14.4%,-2.1
O=C(Nc1cccc(S(=O)(=O)N2CCOCC2)c1)c1cnn2c(C(F)F)cc(-c3ccccc3)nc12,-0.9%,-2.3%,1.5%,-8.2
CN(Cc1ccccc1)C(=O)COc1ccc(C(C)(C)C)cc1,-37.9%,0.1%,12.7%,·

Additional compounds
structure,miR-21 FLuc,Rango complex inh,Rango dissoc inh,GLA inh pH 4.5
CC(=O)N(CCS(=O)(=O)c1ccc(Cl)cc1)Cc1cccs1,0.3%,-4.4%,1.5%,1.1
COc1ccccc1CC(=O)Nc1ccc(-c2noc(COc3cccc(C)c3C)n2)cc1,-2.4%,-2.5%,11.0%,0.3
O=C(NCc1cn2ccsc2n1)Nc1cccc(Cl)c1,-25.7%,0.1%,0.9%,2.6
Cc1ccc(C(=O)NCc2ccc3c(c2)OCO3)o1,-3.8%,-4.1%,19.4%,·
Cc1oc2ccc(O)cc2c1C(=O)OC(C)C,-53.5%,-0.1%,4.8%,0.0
COC(=O)c1sc(NC(=O)CSc2nnc(Cn3nnc4ccccc43)n2C)nc1C,-4.3%,0.0%,1.2%,1.1
CCOc1ccc(S(=O)(=O)NCC2CCCO2)c2ccccc12 (stereo unspecified),3.3%,1.9%,-3.0%,·
COc1ccc(C(NC(=O)c2cccc(F)c2)c2ccccc2)cc1 (stereo unspecified),-4.5%,-0.2%,-4.6%,-6.4
CC(C)(Cl)C1Cc2cc3ccc(=O)oc3cc2O1 (stereo unspecified),-23.7%,?,-10.8%,6.4
N#CC1=C(Nc2ccccc2)SC=C(c2ccc(F)cc2)N=C1N1CCOCC1,-10.1%,·,·,7.5
O=C(NCc1ccccc1)c1cccc(NC(=O)c2ccco2)c1,7.3%,-5.0%,0.9%,5.2
O=C(c1ccccc1)N(CCN1CCOCC1)C1(C(=O)Nc2ccccc2)CCCCC1,-2.1%,-2.2%,0.3%,5.8
Cc1nc(-c2ccccc2OC(F)(F)F)[nH]c(=O)c1Cl,3.1%,0.4%,-0.9%,0.4
CC(=O)OCCNc1cc(SCc2ccco2)c2nonc2c1[N+](=O)[O-],7.4%,?,-14.0%,3.1
FC(F)(F)c1nnc2c(Sc3ccccc3)nc3ccccc3n12,-13.7%,0.2%,-14.3%,1.5

(list continues)
structure,miR-21 FLuc,Rango complex inh,Rango dissoc inh,GLA inh pH 4.5
CN(C(=O)CC(NC(=O)c1ccccc1)(c1ccccc1)c1ccccc1)c1ccccc1,-2.8%,1.2%,-23.3%,-2.7
O=C(NCC(F)(F)F)c1ccc(S(=O)(=O)N2CCN(C(=O)C3CCCO3)CC2)cc1 (stereo unspecified),·,-0.2%,-5.0%,·
CSC(=S)N/N=C(\C)c1ccc(Br)cc1,-6.8%,-0.8%,17.4%,4.0
COc1ccccc1CCNC(=O)C(=O)NCC1OCCN1S(=O)(=O)c1ccc(F)cc1 (stereo unspecified),2.6%,2.1%,-6.2%,·
CC(=O)Nc1ccc(NC(=O)c2ccccc2N(C)S(C)(=O)=O)cc1,-7.7%,0.0%,1.8%,5.2
COc1ccc(NC(=O)c2ccc(OC(F)F)cc2)cc1Cl,3.0%,0.1%,27.2%,-4.9
C=CCn1c(SCc2csc(C)n2)nc2sc3c(c2c1=O)CCCCC3,-5.6%,-2.1%,-0.4%,-6.9
COc1cc(NC(=O)C2=COCCO2)c(OC)cc1Cl,·,-3.0%,4.6%,·
Cc1noc(C)c1S(=O)(=O)N(C)C[C@H]1Oc2ccc(NC(=O)Cn3cnnn3)cc2C(=O)N([C@H](C)CO)C[C@@H]1C,·,2.2%,16.4%,·
COC(=O)c1cc(Br)c(=O)n(Cc2ccncc2)c1,-1.2%,0.1%,-8.9%,0.5
CCCc1cc(=O)oc2cc(OCC(=O)N3CCc4ccccc43)ccc12,-5.6%,0.4%,5.9%,11.2
COCC(=O)N/N=C/c1ccc(Sc2nc3ccccc3s2)o1,-14.9%,3.9%,-3.6%,9.4
Cc1nc2ccc(NS(=O)(=O)c3ccc(Br)cc3)cc2s1,·,?,0.5%,·
CCOC(=O)c1sc(NC(=O)c2ccc(S(=O)(=O)N(C)C)cc2)cc1C,27.3%,-1.2%,-6.3%,-5.2
COc1ccccc1Oc1c(C)oc2c(CN3CCOCC3)c(O)ccc2c1=O,-0.9%,-0.3%,-2.7%,-9.0

2 compounds drawn at random from the list so far, as already listed:
structure,miR-21 FLuc,Rango complex inh,Rango dissoc inh,GLA inh pH 4.5
CCCc1cc(=O)oc2cc(OCC(=O)N3CCc4ccccc43)ccc12,-5.6%,0.4%,5.9%,11.2
CCn1c(Cc2cccs2)nnc1SCC(=O)NC(C)(C)C,-2.5%,?,1.2%,13.9

Going on with the list:
structure,miR-21 FLuc,Rango complex inh,Rango dissoc inh,GLA inh pH 4.5
Cc1cccc(C)c1-n1c(C)cc(/C=C2\NC(=O)NC2=O)c1C,-12.9%,-0.3%,-3.2%,0.6
C=CCN([C@@H](CC(C)C)C(=O)OC)S(=O)(=O)N(CC=C)[C@@H](CC(C)C)C(=O)OC,·,-2.0%,0.2%,·
CC(C(=O)N(C)c1ccccc1)N1CCN(C(=O)c2ccccc2)CC1 (stereo unspecified),1.0%,-1.1%,-1.2%,·
CC(C)NC(=O)C(=O)NCCN1CCN(S(=O)(=O)c2ccc(Cl)cc2)CC1,-2.8%,-0.2%,-0.3%,2.5
Cc1nn(C)c(C(=O)N2CCc3ccccc32)c1Cl,-17.6%,-3.4%,0.2%,-3.1
COc1ccc(CN2CCS(=O)(=O)CC2)cc1OC,-3.5%,-1.0%,0.4%,-0.6
Cc1c(NC(=O)C(C)Sc2ccccc2)c(=O)n(-c2ccccc2)n1C (stereo unspecified),-1.2%,3.3%,-4.6%,-2.9
Cc1ccc(NC(=O)COc2ccccc2C(=O)NCc2ccccc2)cc1,·,-0.8%,6.7%,·
O=C(NCCCO)C(=O)NCCc1ccc(Cl)cc1,-2.6%,-1.1%,26.0%,-0.6
O=C(NCc1ccco1)c1ccccc1-c1ccc(C(F)(F)F)cc1,-2.7%,3.7%,-0.6%,7.1
CCC(=O)n1nc(-c2ccccc2)nc1NCc1ccccc1,-50.5%,-4.8%,-1.1%,-3.7
C[C@@]12C(=O)N(c3ccc(Br)cc3)C(=O)N1[C@@H]1c3ccccc3OC[C@@H]1[C@H]2c1ccccc1,·,1.4%,20.8%,·
COc1ccc(C(=O)NC(C)c2ccc(-n3ccnc3)cc2)cc1[N+](=O)[O-] (stereo unspecified),0.6%,-2.8%,8.7%,·
COc1ccc(C(CCN2CCCCC2)c2c(O)cc(OC)cc2OC)cc1 (stereo unspecified),-3.0%,1.5%,-3.8%,-3.1
CCOCC(=O)Nc1cc(C(=O)Nc2cccc(C)c2C)ccc1Cl,-12.3%,3.3%,0.0%,-2.1

Further entries follow:
structure,miR-21 FLuc,Rango complex inh,Rango dissoc inh,GLA inh pH 4.5
Cc1cc(C(=O)N/N=C/c2ccc(O)c([N+](=O)[O-])c2)n[nH]1,-18.8%,-2.0%,19.7%,-6.3
Nc1ccc(-c2ccc(N)c(C(=O)O)c2)cc1C(=O)O,1.8%,4.1%,15.6%,-1.9
COc1ccc(C2N(C(=O)c3ccccc3)CCN2C(=O)c2ccc(C)cc2)cc1 (stereo unspecified),-6.9%,0.5%,-4.9%,3.1
O=C1OC(c2ccc(F)cc2)=C/C1=C\c1ccc(O)cc1,-18.2%,0.3%,-16.1%,·
CCCCNC(=O)c1cc2c(C)cc(C)cc2[nH]1,-2.5%,1.2%,0.7%,2.2
Cc1ccc2[nH]c(=O)c(C3=NN(C(=O)CCC(=O)O)C(c4cccs4)C3)c(-c3ccccc3)c2c1 (stereo unspecified),1.2%,2.9%,21.1%,2.0
Cc1ccc(SCC(=O)OCc2csc(CC(=O)Nc3ccccc3C)n2)cc1C,·,-0.3%,7.4%,·
O=C(Nc1ccccc1)N1C2CCC1CC(O)(c1cccnc1)C2 (stereo unspecified),-6.0%,0.1%,1.8%,3.2
COC(=O)c1nnn(-c2ccccc2)c1N,-14.1%,0.0%,1.0%,6.4
CCOc1ccccc1-c1ccc(C(=O)NCc2ccccc2)o1,-12.6%,2.6%,-2.4%,-12.3
Cc1nc2ccccc2cc1C(=O)N/N=C/c1ccc([N+](=O)[O-])cc1,22.6%,-2.3%,1.1%,0.2
